nsP2pro primary – CHIKV nsP2 protease inhibition, primary qHTS. Q8JUX6. FRET peptide cleavage, nsP2pro, fluorescence 1 h. Potency, µM (titrated, usually from 24.9 µM), for the others: at the top dose activity change, negative = inhibition, hits mostly inhibitors. 31,000 compounds, 1.1% hits. AID 1964107; active means well fitted inhibition curve with a large enough effect; inconclusive means small, poorly fitted or top-dose-only effect; inactive means no such curve, though single readings can be large or run the other way; also: nearly all actives have a fitted effect of over 60% in size; a reference inhibitor and vehicle were the controls
Target sequence (Q8JUX6 whole entry, looked up): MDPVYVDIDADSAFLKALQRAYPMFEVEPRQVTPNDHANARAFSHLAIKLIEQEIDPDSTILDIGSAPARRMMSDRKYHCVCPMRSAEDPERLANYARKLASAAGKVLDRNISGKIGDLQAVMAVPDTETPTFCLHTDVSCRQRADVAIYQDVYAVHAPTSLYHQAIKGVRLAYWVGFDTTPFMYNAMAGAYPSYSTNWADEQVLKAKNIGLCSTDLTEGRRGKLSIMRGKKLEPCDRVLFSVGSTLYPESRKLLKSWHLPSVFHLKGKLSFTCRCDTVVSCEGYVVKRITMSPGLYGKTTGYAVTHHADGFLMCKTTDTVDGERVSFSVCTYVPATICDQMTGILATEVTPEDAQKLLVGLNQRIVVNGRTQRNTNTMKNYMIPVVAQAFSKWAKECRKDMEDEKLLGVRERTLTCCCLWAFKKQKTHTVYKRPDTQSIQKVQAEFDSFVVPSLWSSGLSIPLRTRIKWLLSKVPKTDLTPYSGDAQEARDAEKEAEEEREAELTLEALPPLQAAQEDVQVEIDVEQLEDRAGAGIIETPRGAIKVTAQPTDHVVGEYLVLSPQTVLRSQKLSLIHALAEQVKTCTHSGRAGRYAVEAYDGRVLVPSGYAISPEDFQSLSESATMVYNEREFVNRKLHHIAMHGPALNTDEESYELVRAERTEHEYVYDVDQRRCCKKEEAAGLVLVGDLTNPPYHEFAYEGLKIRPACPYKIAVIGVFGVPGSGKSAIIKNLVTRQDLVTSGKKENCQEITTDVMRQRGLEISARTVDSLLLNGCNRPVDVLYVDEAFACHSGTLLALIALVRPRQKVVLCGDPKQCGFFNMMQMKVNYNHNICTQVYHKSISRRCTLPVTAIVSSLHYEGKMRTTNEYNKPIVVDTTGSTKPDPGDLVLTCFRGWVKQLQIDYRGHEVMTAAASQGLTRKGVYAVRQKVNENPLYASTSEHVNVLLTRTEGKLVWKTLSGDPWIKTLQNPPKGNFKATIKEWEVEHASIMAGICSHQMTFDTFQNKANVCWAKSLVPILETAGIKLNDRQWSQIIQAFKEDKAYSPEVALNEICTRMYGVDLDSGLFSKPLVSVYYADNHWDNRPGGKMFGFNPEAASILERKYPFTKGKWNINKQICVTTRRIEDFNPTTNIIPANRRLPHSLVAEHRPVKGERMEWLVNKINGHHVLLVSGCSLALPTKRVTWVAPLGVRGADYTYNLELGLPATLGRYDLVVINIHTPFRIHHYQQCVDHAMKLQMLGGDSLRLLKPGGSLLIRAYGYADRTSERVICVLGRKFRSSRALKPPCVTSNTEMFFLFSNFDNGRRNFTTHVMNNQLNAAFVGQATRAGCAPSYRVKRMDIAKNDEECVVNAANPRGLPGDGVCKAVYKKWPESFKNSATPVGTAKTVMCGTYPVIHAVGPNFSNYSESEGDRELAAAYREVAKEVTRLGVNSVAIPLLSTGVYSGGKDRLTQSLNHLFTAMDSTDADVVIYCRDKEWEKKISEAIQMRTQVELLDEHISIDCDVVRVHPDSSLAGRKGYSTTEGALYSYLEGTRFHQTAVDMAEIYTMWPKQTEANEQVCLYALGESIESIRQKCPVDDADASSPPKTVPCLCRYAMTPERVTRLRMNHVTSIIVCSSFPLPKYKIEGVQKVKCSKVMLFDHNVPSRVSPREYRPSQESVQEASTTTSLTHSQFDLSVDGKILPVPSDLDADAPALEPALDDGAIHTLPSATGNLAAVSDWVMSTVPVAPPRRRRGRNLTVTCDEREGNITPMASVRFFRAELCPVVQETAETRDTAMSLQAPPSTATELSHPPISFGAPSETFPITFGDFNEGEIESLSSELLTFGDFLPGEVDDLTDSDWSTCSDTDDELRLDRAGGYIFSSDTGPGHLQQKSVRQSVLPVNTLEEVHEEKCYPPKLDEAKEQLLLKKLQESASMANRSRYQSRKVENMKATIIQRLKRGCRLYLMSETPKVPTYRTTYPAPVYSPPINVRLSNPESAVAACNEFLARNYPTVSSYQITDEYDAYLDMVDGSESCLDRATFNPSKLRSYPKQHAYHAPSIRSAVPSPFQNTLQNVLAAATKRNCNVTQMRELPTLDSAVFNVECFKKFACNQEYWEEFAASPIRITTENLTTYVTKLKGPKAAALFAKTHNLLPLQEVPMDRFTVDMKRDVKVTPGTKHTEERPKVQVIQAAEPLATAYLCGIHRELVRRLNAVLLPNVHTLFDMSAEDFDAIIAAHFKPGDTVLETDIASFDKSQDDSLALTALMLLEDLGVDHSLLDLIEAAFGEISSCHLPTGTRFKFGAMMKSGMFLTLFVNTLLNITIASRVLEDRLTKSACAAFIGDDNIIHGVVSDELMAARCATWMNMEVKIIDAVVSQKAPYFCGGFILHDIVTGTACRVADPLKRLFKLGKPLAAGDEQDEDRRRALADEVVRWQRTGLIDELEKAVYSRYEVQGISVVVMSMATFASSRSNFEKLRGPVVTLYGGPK
* hit, by the source's call; i = inactive; u = inconclusive; [ ] = dose if it differs, or a comment. % is scaled to controls: 0 for no effect and ±100 for the full control effect; potency is read from the fitted curve at half-maximal effect. Only part of the results is shown; rates above refer to the full screens.

A first look, four compounds:
structure	nsP2pro primary
CCOc1ccc(-c2nnc(SCC(=O)NCCc3ccccc3)nc2-c2ccc(OCC)c(OC)c2)cc1OC	-8.9%
C[C@H](NC(CCc1ccccc1)C(=O)O)C(=O)N1CCC[C@H]1C(=O)O (stereo partly specified)	u
O=C([C@H](Cc1ccc(O[S+](=O)([O-])c2cccc3cccnc23)cc1)N[S+](=O)([O-])c1cccnc1)N1CCN(c2ccccc2)CC1	2.0%
Cc1ncc(C[n+]2csc(CCOP(=O)(O)OP(=O)(O)O)c2C)c(N)n1	u

All compounds of this part (from the top)
structure	nsP2pro primary
CCOc1ccc(-c2nnc(SCC(=O)NCCc3ccccc3)nc2-c2ccc(OCC)c(OC)c2)cc1OC	-8.9%
C[C@H](NC(CCc1ccccc1)C(=O)O)C(=O)N1CCC[C@H]1C(=O)O (stereo partly specified)	u
O=C([C@H](Cc1ccc(O[S+](=O)([O-])c2cccc3cccnc23)cc1)N[S+](=O)([O-])c1cccnc1)N1CCN(c2ccccc2)CC1	2.0%
Cc1ncc(C[n+]2csc(CCOP(=O)(O)OP(=O)(O)O)c2C)c(N)n1	u
Cc1ccc(-c2noc(CNC(N)=O)n2)nn1	-14.1%
Cc1cn2nc(C(=O)NC3CCC(C)CC3)cc2c(N2CCCC2)n1 (stereo unspecified)	i
Cc1cc(OCC(=O)Nc2ccc(C(=O)OC3CCCCC3)cc2)cc(C)c1Cl	-19.8%
O=S(=O)(c1cccc(Cl)c1)c1nnn2c1nc(NC1CCCCCC1)c1sccc12	-10.1%
COc1ccc(CC(=O)N2CCC3(CC2)C(=O)NCN3C(=O)C2CCCC2)cc1	-2.0%
CCOc1ccccc1-c1nnc(SCc2ccc(Cl)cc2)o1	4.7%
CC(C)=C1C[C@@]2(C)C(=CC1=O)CC[C@@H](OC(=O)/C(C)=C/CO)[C@@H]2C	0.7%
OCc1ccc(-c2ccc3ncnc(N4CCOCC4)c3c2)o1	12.6µM*
c1nc(N2CCCCC2)c2cc(-c3ccc4c(c3)OCO4)ccc2n1	2.4%
CC[C@@H](C)[C@@H]1NC(=O)[C@@H]2CCCN2C(=O)[C@@H](CC(O)CCl)OC(=O)CCNC(=O)[C@H](C)N(C)C(=O)[C@H](C(C)C)N(C)C1=O (stereo partly specified)	-8.7%[10 µM]
NC(=O)C1CCN(C(=O)c2ccc3c(c2)N(Cc2cccc(Cl)c2)C(=O)c2ccccc2S3(=O)=O)CC1	-0.9%
Cc1cc(C)nc(NC(=S)N2CCN(c3ccc(C(=O)O)cc3)CC2)c1	-3.6%
COc1ccc(C2(CNC(=O)[C@](C)(Cc3c[nH]c4ccccc34)NC(=O)Nc3ccc([N+](=O)[O-])cc3)CCCCC2)nc1	-16.6%
COc1cccc(CN2Cc3cc(NC(=O)Cc4ccccc4)ccc3OCC2=O)c1	-14.3%
O=C(NCC(c1ccc2c(c1)OCO2)N1CCN(c2ccccc2F)CC1)c1ccccc1F (stereo unspecified)	-11.2%
Cc1cccc(-n2cnc3cc(C(=O)NC4CCCC4)ccc32)c1	-2.2%
Cc1ccsc1CN(C)c1ncnc2ccc(-c3ccc([C@@H](C)O)o3)cc12	u
Cc1c(N[C@@H](c2nnc(-c3ccc(C#N)cc3)o2)[C@H](C)O)ccc(C#N)c1Cl	-9.1%
COc1ccc(OC)c(N2C(=O)C(Cl)=C(N3CCCCC3)C2=O)c1	u
C/C=C/c1ccc(O[C@@H]2O[C@H](CO)[C@@H](O)[C@H](O)[C@H]2O)c(OC)c1	47.4%[activator]
COC(=O)CN1C(=O)C(O)(CC(=O)c2ccc(F)cc2)c2ccccc21 (stereo unspecified)	-15.7%
O=C(NC1CCCN(c2ccc3nnc(-c4ccccc4)n3n2)C1)c1ccc(F)cc1 (stereo unspecified)	-5.6%
CCOc1ccc(CC(=O)NCCc2sc(-c3cccc(F)c3)nc2C)cc1	-10.4%
COc1ccc(-c2nc(S(=O)(=O)c3ccc(Cl)cc3)c(NCc3ccccc3)o2)cc1	17.3%
FC(F)(F)c1ccccc1-c1nc(NCc2cccs2)c2ccccc2n1	1.2%
O=C(Nc1c2c(nn1-c1ccc(Cl)cc1)CS(=O)(=O)C2)c1cccc(Cl)c1	-28.7%
O=C(c1cccs1)c1nonc1C(=O)c1cccs1	i
CC(CNC(=O)c1ccc2nc(CCc3ccccc3)oc2c1)c1ccccc1 (stereo unspecified)	-17.9%
O=C(NCCCn1ccnn1)c1cccc(S(=O)(=O)N2CCOCC2)c1	-2.7%
CN(C(=O)c1cc2nc(-c3ccco3)cc(C(F)(F)F)n2n1)c1ccc(OC(F)(F)Cl)cc1	-24.8%
Cc1ccc(C(=O)N2CCC3(CC2)CC(N2CCN(CC(C)C)CC2)CCO3)cn1 (stereo unspecified)	i
CC[C@@]1(c2ccccc2)NC(=O)N(C)C1=O	-8.3%
Cc1ccccc1-c1ccc(NC(=O)c2cccs2)cn1	-1.7%
CC(=O)N1CCCN(c2ncnc3c2CN(C2CCCCC2)C(=O)CN3C)CC1	-1.5%
COCCN1CC(CO)C2(CCN(Cc3cccc(OC)n3)CC2)C1 (stereo unspecified)	-0.6%
CCOC(=O)CSC1=Nc2ccccc2C2=NC(CCC(=O)NCc3ccc(OC)cc3)C(=O)N12 (stereo unspecified)	-13.6%
CCOc1cccc2cc(-c3nc4sc5c(c4c(=O)[nH]3)CCC(C)C5)c(=O)oc12 (stereo unspecified)	-11.3%
COc1ccc(C(=O)N2CC[C@@](O)(C3CCOCC3)[C@H](C)C2)o1	-3.5%
COc1ccc(NC(=O)c2oc3ccccc3c2NC(=O)C2CCCCC2)c(OC)c1	-23.2%
O=C1CC2(CCN(C(=O)C3CCCN3C(=O)c3ccc(Cl)nc3)CC2)Oc2ccccc2N1 (stereo unspecified)	-5.9%
O=NN(CCCl)C(=O)NC1CCCCC1	-2.7%
O=[S+]([O-])(c1ccccc1)N1CC2(CCCCN2Cc2cccnc2)Cc2ccccc21 (stereo unspecified)	i
CCN1CCC(N2CCCC(N3CCN(c4cccc(Cl)c4)CC3)C2)CC1 (stereo unspecified)	i
O=C(C1CCCN(S(=O)(=O)c2cccs2)C1)N1CCN(c2ccccc2F)CC1 (stereo unspecified)	-16.8%
Cc1ccc(CSC2=Nc3ccccc3C3=NC(CC(=O)NCc4cccs4)C(=O)N23)c(C)c1 (stereo unspecified)	-20.8%
COc1ccc(C2CC(=O)Nc3c2c(C)nn3-c2nncc(-c3ccc(C)cc3)n2)c(OC)c1OC (stereo unspecified)	-5.4%
CN(Cc1ccccc1)c1ccc(-c2nc(-c3ccncc3)no2)cc1[N+](=O)[O-]	-5.2%
CC(C)=CCC/C(C)=C/CC/C(C)=C/CC/C(C)=C/CC/C(C)=C/CC/C(C)=C/CC/C(C)=C/CC/C(C)=C/CC/C(C)=C/CO	4.5%[10 µM]
Cc1nc2c(-c3ccc(F)cc3)c(C)nn2c(C)c1CCC(=O)NCc1cccc(Cl)c1	-10.7%
COc1ccccc1C(=O)OCc1cc(=O)n2nc(C3CC3)sc2n1	-3.1%
O=C(Nc1ccc2c(c1)OCO2)c1cccn(Cc2cccc([N+](=O)[O-])c2)c1=O	-27.5%
CCn1cc(C(=O)N(C)Cc2ccccc2)c(=O)c2cc(S(=O)(=O)N3CCc4ccccc4C3)ccc21	-9.8%
C=CC(=O)Nc1cccc(Sc2nc(Nc3ccc(N4CCN(C)CC4)cc3)ncc2Cl)c1	63.9%[activator]
Cc1nc(-c2cn3c(n2)-c2ccc(-c4cnn(C(C)(C)C(N)=O)c4)cc2OCC3)n(C(C)C)n1	6.0%
Cc1ccc(S(=O)(=O)Nc2cc(S(=O)(=O)c3ccc(C)cc3)c(O)c3cccnc23)cc1	i
CC(CNC(=O)C1CCN(C(=O)c2cc3sccc3n2C)CC1)c1ccccc1 (stereo unspecified)	-19.0%

Next results
structure	nsP2pro primary
O=C(CCc1nnn2c1CN(Cc1cn[nH]c1-c1ccc(F)cc1)CC2)N1CCCC1	-3.5%
Clc1ccccc1Cn1cccc1C1=NC(Cc2ccccc2)CO1 (stereo unspecified)	u
COc1ccc2c(c1)OCC(C(=O)NCc1noc(-c3ccco3)n1)C2 (stereo unspecified)	-2.4%
Cc1noc(C)c1S(=O)(=O)N1CCC(C(=O)Nc2ccc(Br)cc2)CC1	-27.4%
COc1ccc(-c2noc(N3CCC(C(=O)N4CCN(c5ccccc5OC)CC4)CC3)n2)cc1	-19.7%
Cn1nc(-c2ccc(C(=O)Nc3cccc(C(F)(F)F)c3)cc2)c2ccccc2c1=O	-10.7%
CC1(C)CC[C@]2(C(=O)O)CC[C@]3(C)C(=CCC4[C@@]5(C)C[C@H](O)[C@H](O[C@@H]6O[C@H](CO)[C@@H](O)[C@H](O)[C@H]6O)[C@@](C)(CO)C5[C@H](O)C[C@]43C)[C@@H]2C1 (stereo partly specified)	1.5%[10 µM]
C[C@@H]1O[C@@H](OC[C@H]2O[C@@H](OCc3ccccc3)[C@H](O)[C@@H](O)[C@@H]2O)[C@H](O)[C@H](O)[C@H]1O	91.7%[activator][10 µM]
CN(C)c1ccc(-c2ccc(=O)n(CC(=O)NCCc3ccccc3)n2)cc1	i
CCc1cccc(CC)c1OCc1cc(C2Nc3ccccc3C(=O)N2Cc2ccco2)ccc1OC (stereo unspecified)	3.7%
O=C(C1CCCCC1)N1CCC(n2cc(-c3nc(-c4ccccc4)no3)nn2)CC1	0.0%
COc1ccc(CCNC(=O)c2ccc3c(c2)ncn3-c2ccc(C(C)C)cc2)cc1OC	10.7%
Cc1ccc(CNc2cccc(N3CCCCC3)c2)cc1	i
CCc1cc2c(cc3c(=O)n(CCCC(=O)NCc4cccc(Br)c4)ncn32)s1	-17.5%
Cc1ccc(CN2CCn3c(nnc3[C@@H]3C[C@@H](O)CN3Cc3cccnc3)C2)s1	u
O=C(c1ccoc1)N1CCN(c2cc(C3CC3)ncn2)CC(O)C1 (stereo unspecified)	-2.4%
O=C(Nc1ccccc1C(F)(F)F)c1ccc(F)c(S(=O)(=O)N2CCc3ccccc3C2)c1	-16.5%
CCC(CC)c1cc([C@H]2CN3CC[C@H]2C[C@@H]3CNC(=O)C2CCC2)nc(-c2ccncc2)n1	-23.3%
CCOC(=O)CNC(=O)N1CCCN(S(=O)(=O)c2ccc3c(ccn3CC)c2)CC1	-14.1%
CN[C@H]1CC[C@@H](c2ccc(Cl)c(Cl)c2)c2ccccc21	14.1%
CCOC(=O)c1cc(NC(=O)c2ccccc2)c(=O)n2c1oc1ccc(Cl)cc12	-24.5%
CC1=C(C(=O)Nc2cc(Cl)ccc2Cl)C(c2ccco2)C2=C(CCCC2=O)N1 (stereo unspecified)	-22.7%
COc1cccc(CNC(=O)c2cnc(N3CCCCC3)c3ccccc23)c1	-15.6%
Cn1cccc1CN1CCC(N2CCNC2=O)CC1	-21.8%[39.2 µM]
O=C(C[C@@H]1C(C(=O)O)=CO[C@@H](O[C@@H]2O[C@H](CO)[C@@H](O)[C@H](O)[C@H]2O)/C1=C\CO)OCCc1ccc(O)cc1	2.8%[10 µM]
NC(=O)NO	u
Cc1ccc(S(=O)(=O)Nc2cc(C(F)(F)F)ccc2C(=O)Nc2nc(-c3ccccc3)cs2)cc1	-3.2%
Cc1c(Cl)cccc1NC(=O)CCS(=O)(=O)c1ccc(Br)s1	-26.4%
C[S+](=O)([O-])NC1CCN(c2nc3ncccc3o2)C1 (stereo unspecified)	-17.6%[39.2 µM]
C[C@@H](CC[C@@H]1[C@@]2(C)CCCC(C)(C)C2CC[C@@]1(C)O)CC(=O)O (stereo partly specified)	-12.6%
CN[C@H]1[C@H](O)[C@H](O[C@@H]2[C@@H](O)[C@H](O[C@H]3O[C@H]([C@H](C)O)[C@@H](O)[C@H](O)[C@H]3N)[C@@H](N)C[C@H]2N)OC[C@@]1(C)O	-1.0%
CC12CCC(OC3OC(CO)C(O)C(OC4OC(CO)C(O)C(O)C4O)C3O)CC1=CCC1C2CCC2(C)/C(=C3/COC(=O)C3)CCC12O (stereo unspecified)	-2.7%[10 µM]
CCOC(=O)N1CCc2c(sc3c2C(=O)NC(c2ccccc2F)N3)C1 (stereo unspecified)	-18.4%
S=P(c1ccccc1)(c1ccccc1)c1c[n+](C/C=C/c2ccccc2)c2ccccn12	-27.8%
C[C@]12CC[C@@H]3c4ccc(O)cc4CC[C@H]3[C@@H]1CC[C@@H]2O	11.7%
CCc1nc2ccc(C(=O)N3CCN(c4cccc(OC)c4)CC3)cc2nc1CC	-12.7%
N#Cc1ccc(S(=O)(=O)N2CCc3n[nH]c(=O)n3CC2)cc1	i
O=C(CCc1ccc2c(c1)OCO2)N[C@H](c1ccccn1)C1CC(O)C1 (stereo partly specified)	i
CN(C)c1ccc(C(=O)N[C@H]2CO[C@H]3[C@@H]2OC[C@@H]3Nc2nccc(-c3cccs3)n2)cc1	-15.8%
COc1ccc(OC)c(S(=O)(=O)Nc2nc3c(s2)C[C@]2(C)CC[C@@H]4[C@H](OC(=O)[C@H]4C)[C@H]2[C@@H]3C)c1	-7.4%
CC(C)CCN1C(=O)CC[C@]2(C(=O)NCc3cccs3)CCCC[C@@H]12	1.4%
CCC(C(=O)O)[C@H]1CC[C@H](C)[C@H]([C@@H](C)[C@H](O)[C@H](C)C(=O)[C@H](CC)[C@H]2OC3(C=C[C@@H](O)[C@]4(CC[C@@](C)([C@H]5CC[C@](O)(CC)[C@H](C)O5)O4)O3)[C@H](C)C[C@@H]2C)O1 (stereo partly specified)	-4.3%
O=C1CCc2cc(S(=O)(=O)Nc3ccc4c(c3)CCC4)ccc2N1	4.1%
Cc1cc(N2C(=O)c3ccccc3C2=O)no1	-3.9%

Screens: PubChem BioAssay, National Center for Advancing Translational Sciences (NCATS)
